NPYLR7 agonist: mosquito NPYLR7 agonism; HEK293T NPYLR7/Galpha15, GCaMP6s calcium fluorescence; activation, % at 10 µM; AID 1259423; 270,000 compounds, 0.15% hits; in the data active = activation above about 40%;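 also: 0% = vehicle and 100% = reference agonist at the receptor; some compounds past the cut are filed as inactive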
NPYLR7 agonist max-min: recorded beside NPYLR7 agonist, whose call it bears; activation, %; measured here: Max-Min RFU normalised activation; some inactives read as strong as hits;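 span of the calcium signal over five minutes; 0% = vehicle and 100% = native peptide agonist; compound fluorescence can raise it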
The depositor's hits bear a star; & = joins results of further samples.

The line under a structure holds: NPYLR7 agonist | NPYLR7 agonist max-min
Cc1cccc(Cc2cnc(NC(=O)CCN3C(=O)/C(=C/c4ccccc4Cl)SC3=S)s2)c1
  -6 | -9
c1ccc(-c2cc(=Nc3ccc4c(c3)OCCO4)c3ccccc3o2)cc1
  5 | 2
Cc1occc1C(=O)N1CCOC(Cc2cccc(C(F)(F)F)c2)C1 (stereo not given)
  -2 | -7
Cc1cccc(CSc2nc(=O)n3ccccc3n2)c1
  6 | 4
O=S(CCn1cccn1)Cc1cc(Cl)c2c(c1)OCCO2 (stereo not given)
  3 | -1
OC1CCC(NCc2cnn(-c3ccc(Br)cc3)c2)CC1 (stereo not given)
  5 | 1
Cc1ccc(S(=O)(=O)N(CCN2CCOCC2)Cc2nccn2Cc2ccc(F)cc2)cc1
  6 | 8
Cc1noc(C)c1C(=O)N(C1=NC(C)CS1)c1ccc(Cl)cc1 (stereo not given)
  9 | 4
O=[N+]([O-])c1ccn(Cc2cccc3ccccc23)n1
  -2 | -3
COc1ccc2nc(NC(=O)c3cc(OC)c(OC)c(OC)c3)sc2c1
  -5 | -10
O=C(c1ccc(Cn2cnnn2)cc1)N1CCOC(c2ccc(Cl)cc2)C1 (stereo not given)
  2 | -1
CNC(=O)CN(C(=O)COc1ccccc1)[C@H]1[C@H](O)[C@@H]2O[C@H]1c1ccccc12
  4 | 4
c1ccc(Cn2nnnc2CN2C[C@@H]3[C@@H]4CC[C@@H](C4)[C@@H]3C2)cc1
  27 | 10
CCOC(=O)c1ccc2c(c1)nc(SCc1nc(-c3ccc(C(F)(F)F)cc3)oc1C)n2Cc1ccccc1
  3 | -3
Cn1cnnc1SCCC(=O)N1CCN(c2ccccn2)CC1
  4 | 0
CC1=C(C(=O)OCC(C)C)C(c2ccc(Cl)cc2)C2=C(CC(c3ccc(Cl)cc3)CC2=O)N1 (stereo not given)
  3 | -1
CCOCCn1c(=O)c2c(nc3n(C4CCCCC4)c(C)c(C)n23)n(C)c1=O
  18 | 10
Cc1cc(C(=O)NCCc2cnc[nH]2)c(NC(=O)C(C)(C)C)s1
  11 | 7
O=S(=O)(c1ccccc1)c1cnc2ccccc2c1Nc1ccccc1
  3 | 1
COc1ccc(C2=NOC(CN(Cc3cccc(Cl)c3)CC(O)Cc3ccccc3)C2)cc1 (stereo not given)
  14 | 17
CC(c1cccc(-c2cccc(C(=O)c3nccn3C)c2)c1)N(C)C (stereo not given)
  21 | 9
CC(C)(C)c1ccc(C(=O)N2CCC2(C)C(=O)NS(=O)(=O)c2cccc(Cl)c2)cc1 (stereo not given)
  3 | 2
Cc1nn(C)c(Cl)c1CNCc1ccccc1
  7 | 3
O=C(NCC1CCCN(C2CCOCC2)C1)C1(c2ccc(Cl)cc2)CC1 (stereo not given)
  4&9 | 4&2
Cc1cc(=O)n2c(c1C#N)SCCC2
  -1 | -3
O=C(Nc1ccc(-c2noc(-c3cccs3)n2)cc1)c1cccc(Br)c1
  -2 | -1
CN(C)CCN(Cc1nccn1Cc1ccccc1)C(=O)c1cccc(F)c1
  8 | 15
Cc1cccnc1CN1CCC(N2CCCC2=O)CC1
  2 | -1
CC(=O)c1[nH]c(C)c(C(=O)N2CCC3(CN(C)C(=O)O3)C2)c1C (stereo not given)
  11 | 6
COc1ccc(-c2cc(=O)c3c(OC)c(OC)c(OC)c(OC)c3o2)cc1
  -13 | -17

Structures shown so far containing fluorine, in the order listed:
The line under a structure holds: NPYLR7 agonist | NPYLR7 agonist max-min
Cc1occc1C(=O)N1CCOC(Cc2cccc(C(F)(F)F)c2)C1 (stereo not given)
  -2 | -7
Cc1ccc(S(=O)(=O)N(CCN2CCOCC2)Cc2nccn2Cc2ccc(F)cc2)cc1
  6 | 8
CCOC(=O)c1ccc2c(c1)nc(SCc1nc(-c3ccc(C(F)(F)F)cc3)oc1C)n2Cc1ccccc1
  3 | -3
CN(C)CCN(Cc1nccn1Cc1ccccc1)C(=O)c1cccc(F)c1
  8 | 15

Continued.
The line under a structure holds: NPYLR7 agonist | NPYLR7 agonist max-min
O=C(CCc1ccccc1)Nc1nnc(COc2ccccc2)s1
  10 | 8
CC1C(=O)N(c2cccc(F)c2)CCN1S(=O)(=O)c1ccccc1 (stereo not given)
  -2 | -2
Cc1ccnc(CC(C)N(C)C(=O)c2csc3nc(-c4ccccc4)cn23)c1 (stereo not given)
  7 | 6
COc1ccc(-c2c(C)nn(-c3ccccc3)c2C)c(C(=O)NCCc2nc3ccccc3[nH]2)c1
  -1 | -6
Cc1ccccc1CC1(CO)CCCN(C(=O)CCC(F)(F)F)C1 (stereo not given)
  -5 | -12
O=S(=O)(O)CCCS(=O)(=O)O
  -15 | -10
CC(C)(C)n1nc2c(c1NC(=O)Nc1ccc(Cl)cc1)CSC2
  -1 | -1
CCC(c1nc2ccccc2c(=O)n1-c1ccc(OC)cc1)N(CCc1ccccc1)C(=O)Nc1ccccc1C (stereo not given)
  19 | 15
Cc1cccn2cc(CCNc3cc(Cl)nc(N)n3)nc12
  11 | 9
COc1cccc2c1OCC(NC(=O)C(=O)Nc1ccc(F)cc1)C2 (stereo not given)
  5 | 5
COc1ccc(/C=C2\Oc3c(ccc4c3CN(C3CCS(=O)(=O)C3)CO4)C2=O)cc1 (stereo not given)
  68* | 54*
CCN(CC)C(=O)C1CCCN(C(=O)Cn2nnnc2CN(C)C(C)C)C1 (stereo not given)
  3 | -2
CCC(C)C(=O)NC1CCC(O)CC1 (stereo not given)
  -2 | -5
Fc1ccccc1-c1nnc(SC(c2ccccc2)c2ccccc2)o1
  -2 | 0
CC(C)CSC(CC(=O)O)C(=O)O (stereo not given)
  2 | 28
C=CCn1c(N)c(C(=O)NCc2ccco2)sc1=S
  11 | 10
COC(=O)CNC(=O)c1ccc([N+](=O)[O-])o1
  2 | 4
CN1CCN2C[C@@H](NC(=O)C3=NN(C)C(=O)CC3)C[C@H]2C1
  6 | 2
COCC(=O)Nc1ccc(N2CCN(C(=O)COc3cccc(Cl)c3)CC2)nc1
  10 | 16
O=C(NCC1CCCO1)C12CC3CC(CC(C3)C1)C2 (stereo not given)
  -1 | -4
CC(c1nc(N)nc(N(C)C)n1)N1CCOC(c2ccc(F)cc2)C1 (stereo not given)
  7 | 4
Cc1ncc(-c2c(-c3ccccc3)ncn2CCCc2c(C)n[nH]c2C)[nH]1
  -2 | -4
Cc1ccc2nc(C(C)c3ccccc3)c(NC3CCCCC3)n2c1 (stereo not given)
  11 | 26
COc1cccc(/C=C2/SC(=S)N(CC(=O)O)C2=O)c1O
  -5 | -11
COc1ccccc1N1CCN(c2ccc(NC(=O)Nc3ccc(C(F)(F)F)cc3)cc2C(=O)NC(C)c2ccccc2)CC1 (stereo not given)
  -11 | -14
COc1c(Br)cc(F)cc1NS(=O)(=O)c1ccccc1C#N
  10 | 6
CC(=O)Nc1ccc(S(=O)(=O)N2CCc3nc(Cc4cccc(C)c4)nc(N4CCOCC4)c3C2)cc1
  -10 | -10
O=C(NCC(c1ccco1)N1CCCC1)C1=CN2CCS(=O)(=O)N=C2C=C1 (stereo not given)
  0 | 10
CC1ON=C(c2ccccc2F)N(Cc2ccc(S(C)(=O)=O)cc2)C1=O (stereo not given)
  10 | 6
Cc1cc(-c2nsc(=O)o2)c(S(C)(=O)=O)s1
  14 | 7
O=C(O)CN1CCSC1=O
  0 | -1
CN1CCC2(CC1)Oc1ccccc1C1CC(c3ccc(Br)cc3)=NN12 (stereo not given)
  -9 | -12
CC(C)(C)C(=O)Nc1cc2nn(-c3ccccc3)nc2cc1Cl
  -4 | -4
CC(=O)c1c(C)cc(C)c(CSCc2c(C)noc2C)c1C
  0 | 5
Cc1cnc(C)c(N2CCN(C(=O)c3cn(CCN4CCCCC4)nn3)CC2)n1
  9 | 10
CSc1nc2ncc3c(=O)n(-c4ccc(Cl)cc4)ccc3n2n1
  6 | 11
CC(=O)Oc1ccccc1Cn1c(C)c(C(=O)NCc2cccc([N+](=O)[O-])c2)sc1=O
  9 | 5
CCNC(=O)c1coc(CN(Cc2ccc3c(c2)OCO3)Cc2cc(C)ccc2C)n1
  24 | 38
O=C(NC1CCN(Cc2ccccc2)CC1)c1ccc(Br)o1
  4 | -3
COCCn1cnnc1C(C)n1ccnc1C1CC1 (stereo not given)
  11 | 10
COc1ccc(Oc2coc3c(CN4CCN(C)CC4)c(O)ccc3c2=O)cc1
  -16 | -21
COCCN(Cc1ccc(OS(C)(=O)=O)cc1)C(=O)Nc1ccc(Cl)cc1Cl
  18 | 18
CCOC(=O)[C@@H]1[C@@H](OC)C(=O)N(Cc2ccccc2)C12CCN(C(=O)OC)CC2
  15 | 25
COc1ccc(-c2nc(NC(=O)c3ccc(Cl)c(N4CCCC4=O)c3)sc2C)cc1
  -1 | 0
COc1cccc(N2CCN(C(C)C(=O)Nc3ccc(C(C)C)cc3)CC2)c1 (stereo not given)
  16 | 8
Cc1noc(C)c1CC(=O)OC(C)C(=O)NC(N)=O (stereo not given)
  5 | 2
CC1=CSC2=NC(=O)/C(=C/c3cccc(OC(=O)c4ccccc4F)c3)C(=N)N12
  -1 | 0
CCN(CC)c1ccc(/C=N\NC(=O)c2ccc(O)cc2)cc1
  19 | 8
O=C(NCc1ccco1)c1cc(N2CCN(c3cccc(C(F)(F)F)c3)CC2)nc2ccccc12
  5 | 1
Cc1cc(C(F)(F)F)nn1CC(=O)NCc1cccs1
  2 | -1
CN(C(=O)COc1ccc(F)cc1Cl)C1CCS(=O)(=O)C1 (stereo not given)
  -3 | -6
CCOCC(=O)N1CCN(C(=O)c2cn(C(C)C)cc3c(=O)n(-c4ccccc4)nc2-3)CC1
  -4 | -6
CC(NCc1ncc(-c2ccc(F)cc2)o1)c1ccc(Cl)cc1Cl (stereo not given)
  7 | 3
CC(C)CC(C(=O)N1CCC(c2nnc3ccccn23)CC1)N1C(=O)C2CC=CCC2C1=O (stereo not given)
  2 | -1
CCc1cccc2sc(N(CCCn3ccnc3)C(=O)c3ccc4c(c3)OCCO4)nc12
  -8 | -14
O=C(Cc1ccccc1)OCCN1C(=O)c2cccc3c(N4CCOCC4)ccc(c23)C1=O
  -7 | -13
Cc1cccc(S(=O)(=O)N(Cc2ccccc2F)[C@@H]2CCCCC2NC(=O)[C@H]2CCCN2)c1 (stereo not given in full)
  1 | 10
Cc1cc(C)nc(N2CCN(c3ncnc4c3cnn4-c3ccccc3)CC2)n1
  8 | 6
Cc1noc(C)c1S(=O)(=O)Nc1ccccc1-c1n[nH]c(C2CC2)n1
  5 | 3
O=C(c1cc(COc2ccc(F)c(F)c2)on1)N1CCCCC1c1ccc(F)cc1 (stereo not given)
  16 | 3

(continued)
The line under a structure holds: NPYLR7 agonist | NPYLR7 agonist max-min
COc1cc2sc(=NC(=O)c3coc4ccccc4c3=O)n(C)c2cc1OC
  2 | 1
COc1ccc(S(=O)(=O)Nc2ccc(Nc3ccc(-n4nc(C)cc4C)nn3)cc2)c(C)c1C
  -5 | -12
O=C(c1cncc(Cl)c1)N1CCCC(c2ccn[nH]2)C1 (stereo not given)
  0 | -2
C=CCn1c(N)c(C(=O)NCCC2=CCCCC2)sc1=S
  17 | 12
C=CCN(Cc1ccccc1F)C(=O)Nc1ccc(F)c(C(N)=O)c1
  2 | 3
CC(NC(=O)CN(C)CC(=O)Nc1ccc(Cl)cc1)c1ccco1 (stereo not given)
  1 | 2
N#CCc1cccc(C(=O)Nc2cc(C(N)=O)c(F)cc2F)c1
  -6 | -5
CCN(CC)C(=O)CSc1ncnc2c1cnn2-c1ccc(F)cc1
  7 | 9
Cc1nc(NCCNS(=O)(=O)c2ccc(F)cc2)cc(-n2ccnc2C)n1
  -19 | -22
COc1cccc(OC)c1C(=O)Nc1cccc2c1C(=O)N(C)C2=O
  -6 | -8
Cc1ccc(C)c(NC(=O)CC(=O)NCCOc2ccccc2)c1
  -2 | -6
COc1cccc2sc(N(CCCN(C)C)C(=O)c3ccc(Cl)s3)nc12
  0 | -2
Oc1ccc2ccccc2c1C=NNc1nc2ccccc2[nH]1
  9 | 13
CCC(C)N(Cc1ccc(C)cc1)Cc1nccn1C (stereo not given)
  -2 | -4
Cc1cc(C)cc(-n2nnnc2SCC(=O)NCc2ccco2)c1
  22 | 10
O=C(CC(c1ccccc1)c1ccc(Cl)cc1)N1CCC(CCO)CC1 (stereo not given)
  7 | -2
CCOc1ccc(NC2=C([N+](=O)[O-])CS(=O)(=O)C2)cc1
  -8 | -12
CC(C)NC(=O)CN(C)C1CCN(C(=O)c2cccn2C)CC1
  3 | 3
Cc1ccc(OCCN(C)C(=O)c2nc[nH]c2C)cc1
  2 | -17
CC(c1ccccn1)N(C)Cc1ccc(C(F)(F)F)nc1 (stereo not given)
  0 | -1
Cc1cnc2c(C(=O)N3CCC(c4ccccc4C(=O)O)C3)cnn2c1 (stereo not given)
  -14 | -18
Cc1ccc(-c2nc3cc(C)ccn3c2NCc2ccccc2)cc1
  -8 | 0
O=C1CCC2(CCCO2)CCN1Cc1csc(-c2ccccc2)n1 (stereo not given)
  6 | 3
CCC1CN(C(=O)C(C)SC)CCO1 (stereo not given)
  14 | 5
Cc1cccc(-n2c(SCc3ccc(C(=O)NCc4cccc(C(F)(F)F)c4)cc3)nnc2-c2ccncc2)c1
  6 | 16
CCCOCC1CC2(SC(=Nc3ccc(C)cc3)NC2=O)C(=O)O1 (stereo not given)
  0 | 44

Complete entries as entered above. Screens in order: NPYLR7 agonist | NPYLR7 agonist max-min
Profile of Cc1occc1C(=O)N1CCOC(Cc2cccc(C(F)(F)F)c2)C1 (stereo not given) → -2 | -7
Profile of CC1=CSC2=NC(=O)/C(=C/c3cccc(OC(=O)c4ccccc4F)c3)C(=N)N12 → -1 | 0
Profile of COc1ccc(S(=O)(=O)Nc2ccc(Nc3ccc(-n4nc(C)cc4C)nn3)cc2)c(C)c1C → -5 | -12
Profile of COc1cccc2c1OCC(NC(=O)C(=O)Nc1ccc(F)cc1)C2 (stereo not given) → 5 | 5

Bioassay records deposited in PubChem BioAssay by Fisher Drug Discovery Resource Center.

Not all compounds are listed; count on the stated rates, not on these rows.
